# Screening data deposited in PubChem by Broad Institute.
# A1 inhib: inhibitors of A1. caspase activation, % (no concentration beside the values). MEF A1-2A-BIM cells, caspase-Glo luminescence, 3 h; percent of clofoctol signal, DMSO as zero. actives 0.51% (n = 21,000). AID 2241;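 active = most replicate scores above 10, or exactly half above 10 with mean activity above 10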;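 also: effector caspase 3 and 7 activity cleaving a DEVD luciferin substrate; 50 nL library stock added to about 30 µL; numbers are from one replicate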
# BJeLR viability: compounds reducing viability of BJeLR cells. viability loss activity score, % (concentration not given with the values). actives 0.64% (n = 30,000). BJeLR fibroblasts viability, CellTiterGlo ATP luminescence, 48 h; HRASV12, hTERT and SV40 LT/ST transformed; in the data active = viability loss activity score above about 50%; about a fifth of its hits are not listed in these tables;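 also: higher score means fewer live cells and less ATP luminescence; stock transfer was 50 or 100 nL into about 30 µL; 0% = vehicle wells and 100% = a reference killing control; one replicate is shown; the record names a cut of 85%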
# The depositor's hits bear a star; nt = not tested or not shown.
# Sequence of screens: A1 inhib, BJeLR viability
> Cc1noc(C)c1S(=O)(=O)Nc1ccc2c(c1)C(=O)N([C@@H](C)CO)C[C@H](C)[C@@H](CN(C)Cc1ccc(C(=O)Nc3ccccc3N)cc1)O2
    nt, 10.2
> COC(=O)c1c(-c2ccc(OC)c(OC)c2)csc1NC(=O)C1CC1c1ccccc1 (stereo not drawn)
    0.7, -0.5
> Cc1[nH]c(=O)[nH]c(=O)c1S(=O)(=O)N1CCCc2ccccc21
    -0.4, -1.3
> C[C@H](CO)N1C[C@H](C)[C@@H](CN(C)Cc2ccc(Cl)c(Cl)c2)Oc2ccc(NS(=O)(=O)c3cn(C)cn3)cc2C1=O
    -0.2, -0.6
> c1ccc(-c2nc(SCC3COc4ccccc4O3)oc2-c2ccccc2)cc1 (stereo not drawn)
    0.4, 1.3
> COc1ccc(S(=O)(=O)N(C)C[C@@H]2Oc3ccc(NC(=O)CCC(F)(F)F)cc3C(=O)N([C@@H](C)CO)C[C@@H]2C)cc1
    0.0, -2.3
> Cc1ccc(NC(=O)CCc2nnc3ccc(N4CCN(C5CCCCC5)CC4)nn23)cc1C
    -0.4, 3.3
> COC(=O)c1ccc(NC(=S)NC(=O)N2CCOCC2)cc1
    0.9, -13.2
> O=c1c2cc(-c3ccccc3)sc2ncn1/N=C/c1cccs1
    0.9, 0.8
> C[C@H](CO)N1C[C@H](C)[C@H](CN(C)Cc2ccc(Oc3ccccc3)cc2)Oc2c(NC(=O)c3ccncc3)cccc2C1=O
    nt, -3.2
> COc1ccc(NC(=O)N(C)C[C@H]2Oc3c(NS(=O)(=O)c4c(C)noc4C)cccc3C(=O)N([C@H](C)CO)C[C@H]2C)cc1
    nt, 0.9
> C[C@@H]1CN([C@@H](C)CO)C(=O)c2cc(NC(=O)Cn3cnnn3)ccc2O[C@H]1CN(C)C(=O)Nc1ccc2c(c1)OCO2
    0.2, -1.3
> Cc1onc(-c2ccccc2)c1C(=O)/C=C/N(C)C
    1.5, 0.8
> COCc1cc(C)n(CC(=O)Nc2cc(Cl)ccc2OC)c(=O)c1C#N
    nt, -4.7
> Cc1noc(C)c1S(=O)(=O)Nc1cccc2c1O[C@H](CN(C)S(=O)(=O)c1ccccc1)[C@H](C)CN([C@H](C)CO)C2=O
    nt, -5.7
> Cc1noc(C)c1NC(=O)Nc1ccc2c(c1)C(=O)N([C@@H](C)CO)C[C@H](C)[C@H](CN(C)Cc1ccc(C(=O)Nc3ccccc3N)cc1)O2
    nt, 2.3
> CC1=CC(c2ccccc2)=C(C#N)C(=S)C1CC(=O)c1cccs1 (stereo not drawn)
    -0.1, -4.4
> COc1cc(N)c(C#N)cc1OC
    1.0, -0.4
> O=C(c1ccccc1C(=O)N1CCCCC1)N1CCCCC1
    -0.1, -5.4
> Cc1ccc(S(=O)(=O)Nc2cccc3c2O[C@H](CN(C)C(=O)NC(C)C)[C@@H](C)CN([C@@H](C)CO)C3=O)cc1
    nt, 5.4
> O=C(CCN1CCCCC1)Nc1ccc(Cl)cc1
    0.3, -2.6
> Cn1c(=O)cc(SCC(=O)N2CCCC2)c2ccccc21
    nt, -3.5
> COc1ccc(CN(C)C[C@@H]2Oc3ccc(NS(=O)(=O)c4ccc(Cl)cc4)cc3C(=O)N([C@H](C)CO)C[C@H]2C)cc1
    -1.2, -2.6
> C[C@@H]1CN([C@@H](C)CO)C(=O)c2cccc(NC(=O)Nc3ccc4c(c3)OCO4)c2O[C@@H]1CN(C)S(=O)(=O)c1cccs1
    nt, -4.0
> C[C@H](CO)N1C[C@H](C)[C@@H](CN(C)S(=O)(=O)c2ccc(F)cc2)Oc2ccc(NS(=O)(=O)c3cccs3)cc2C1=O
    0.6, -0.1
> C[C@@H]1CN([C@@H](C)CO)C(=O)c2cccc(NC(=O)C3CCOCC3)c2O[C@@H]1CN(C)S(=O)(=O)c1cn(C)cn1
    nt, 1.8
> COc1ccc(/C=C2/NC(=O)NC2=O)cc1
    0.0, -5.7
> Cc1noc(C)c1NC(=O)Nc1cccc2c1O[C@H](CN(C)CC1CCCCC1)[C@H](C)CN([C@@H](C)CO)C2=O
    nt, 0.4
> Cc1c(-c2ccccc2)nc2sc3c(c2c1N)CCCC3
    -2.1, 0.3
> CCc1ccc(NC(=O)CCc2nc3ccccc3[nH]2)cc1
    nt, -1.1
> O=C(OCCO)c1cccc2c1-c1ccccc1C2=O
    -0.4, -7.3
> Cc1noc(C)c1NC(=O)N(C)C[C@@H]1Oc2ccc(NC(=O)Cc3ccccc3)cc2C(=O)N([C@@H](C)CO)C[C@H]1C
    -0.1, 3.8
> COc1c(C(CC(C)C)OC(C)=O)ccc2c1C(=O)OCc1cc(C)cc(O)c1O2 (stereo not drawn)
    -0.5, 2.1
> C[C@@H]1CN([C@H](C)CO)C(=O)c2cccc(NC(=O)Nc3ccc(C(F)(F)F)cc3)c2O[C@H]1CN(C)Cc1ccc(Cl)c(Cl)c1
    nt, 2.4
> CCOc1ccc(/C=C2\SC(=Nc3cccc(C)c3C)NC2=O)cc1
    0.2, 27.1
> COc1ccc(NC(=O)c2ccc(N3C(=O)c4ccccc4C3=O)cc2)cc1
    nt, -2.8
> COc1ccc(OCc2ncc(-c3ccc4c(c3)OCCCO4)s2)cc1
    -0.1, -2.4
> Clc1ccc(Oc2nc(Oc3ccc(Cl)cc3)nc(N3CCSCC3)n2)cc1
    0.2, 2.9
> O=C(CSc1nc(-c2cccs2)cc(C(F)(F)F)n1)OCCCc1ccccc1
    nt, 1.6
> COc1ccc(NC(=O)N(C)C[C@@H]2Oc3c(NC(=O)Nc4ccc(F)cc4)cccc3C(=O)N([C@@H](C)CO)C[C@H]2C)cc1
    nt, -5.8
> CCOC(=O)c1cccc(NS(=O)(=O)c2cc(C(=O)OCC)n(C)c2)c1
    -1.6, 3.8
> O=C1OC2(C(=O)c3ccccc3C2=O)C(C(=O)c2ccc(F)cc2)C1=O (stereo not drawn)
    nt, -9.3
> COc1c(O)cc2c(c1OC)CC(=O)CCC2
    0.4, -3.5
> COc1ccc(NC(=O)Nc2ccc3c(c2)C(=O)N([C@H](C)CO)C[C@@H](C)[C@H](CN(C)C(=O)Nc2cccc4ccccc24)O3)cc1
    0.5, 1.2
> C[C@@H]1CN([C@H](C)CO)C(=O)c2cc(NS(=O)(=O)c3cn(C)cn3)ccc2O[C@@H]1CN(C)C(=O)Nc1ccccc1
    0.1, -1.9
> COC(=O)C1=CO[C@@H](OC2OC(O)C(O)C(O)C2CO)[C@H]2[C@@H]1C=CC21C=C([C@H](C)OC(=O)/C=C/c2ccc(OC3OC(CO)C(O)C(O)C3O)cc2)C(=O)O1 (stereo partly drawn)
    1.3, -5.8
> CC(CNC(=O)c1nnc(Cc2ccc(Cl)cc2)o1)c1ccccc1 (stereo not drawn)
    nt, 1.8
> C[C@H](CO)N1C[C@H](C)[C@H](CN(C)Cc2ccc(-c3ccccc3)cc2)Oc2ccc(NS(=O)(=O)c3cn(C)cn3)cc2C1=O
    -0.2, -0.5
> CC(C)NC(=O)N(C)C[C@H]1Oc2ccc(NC(=O)C3CC3)cc2C(=O)N([C@@H](C)CO)C[C@H]1C
    -0.5, 0.6
> Cc1cccc(N(CC(=O)Nc2ccccc2)S(C)(=O)=O)c1C
    0.2, 4.1
> COc1ccc(N(C)C(=O)c2cn(CC(C)C)c(=O)c3cc(OC)c(OC)cc23)cc1
    nt, 1.6
> C[C@@H]1CN([C@H](C)CO)C(=O)c2cccc(NC(=O)Nc3ccc(C(F)(F)F)cc3)c2O[C@@H]1CN(C)C(=O)Nc1cccc2ccccc12
    nt, -3.4
> O=S(=O)(c1ccc(C(F)(F)F)cc1)n1nccc1-c1cc(-c2ccccc2)no1
    -2.2, -0.4
> O=C(Oc1ccc(Cl)cc1)C1c2ccccc2Oc2ccccc21
    nt, -1.7
> Cc1c(NC(=O)CCN2C(=S)NC(C)(C)CC2C)c(=O)n(-c2ccccc2)n1C (stereo not drawn)
    nt, -4.7
> Cc1ccc(S(=O)(=O)Nc2cccc3c2O[C@@H](CN(C)S(=O)(=O)c2ccc(C)cc2)[C@@H](C)CN([C@@H](C)CO)C3=O)cc1
    nt, -2.5
> CCCCN1C2=NC3C=CC=CN3C(=O)C2=CC(C(=O)OCC)C1=NC(=O)C(C)Oc1ccccc1 (stereo not drawn)
    nt, -1.7
> O=C(O)c1ccc2nc(N3CCCCC3)sc2c1
    0.3, 2.5
> C[C@@H]1CN([C@@H](C)CO)C(=O)c2cc(NC(=O)CCN3CCOCC3)ccc2O[C@@H]1CN(C)S(=O)(=O)c1ccccc1
    -0.2, 1.2
> CCOC(=O)C1C(=O)C=C(c2ccco2)CC1c1ccc(CC)cc1 (stereo not drawn)
    nt, 4.8

# Whole records from above. Screens in order: A1 inhib | BJeLR viability
# O=C(Oc1ccc(Cl)cc1)C1c2ccccc2Oc2ccccc21 across the screens: nt | -1.7
# Cc1cccc(N(CC(=O)Nc2ccccc2)S(C)(=O)=O)c1C across the screens: 0.2 | 4.1
# O=C1OC2(C(=O)c3ccccc3C2=O)C(C(=O)c2ccc(F)cc2)C1=O (stereo not drawn) across the screens: nt | -9.3
# COC(=O)C1=CO[C@@H](OC2OC(O)C(O)C(O)C2CO)[C@H]2[C@@H]1C=CC21C=C([C@H](C)OC(=O)/C=C/c2ccc(OC3OC(CO)C(O)C(O)C3O)cc2)C(=O)O1 (stereo partly drawn) across the screens: 1.3 | -5.8
# Cc1c(NC(=O)CCN2C(=S)NC(C)(C)CC2C)c(=O)n(-c2ccccc2)n1C (stereo not drawn) across the screens: nt | -4.7

# Next records.
# Sequence of screens: A1 inhib, BJeLR viability
> Cc1noc(C)c1NC(=O)Nc1ccc2c(c1)C(=O)N([C@@H](C)CO)C[C@@H](C)[C@@H](CN(C)S(=O)(=O)c1cccs1)O2
    0.0, -5.5
> C[C@H]1CN([C@@H](C)CO)C(=O)c2cccc(NS(C)(=O)=O)c2O[C@@H]1CN(C)C(=O)Nc1ccc(C(F)(F)F)cc1
    nt, -3.3
> CCN(CC)c1c(C#N)c(SCC(=O)c2cccs2)cc2c1CCCC2
    -0.3, 13.2
> C[C@H](CO)N1C[C@H](C)[C@H](CN(C)S(=O)(=O)c2cccs2)Oc2c(NC(=O)Nc3ccc(F)cc3)cccc2C1=O
    nt, -0.6
> C[C@H]1CN([C@@H](C)CO)C(=O)c2cc(NC(=O)C3CCCCC3)ccc2O[C@@H]1CN(C)C(=O)Nc1ccc(F)cc1
    0.3, 2.7
> COC(=O)CN1C=C(C(=O)OC)C(c2ccc(O)cc2)C(C(=O)OC)=C1
    1.7, 5.9
> C[C@@H]1CN([C@H](C)CO)C(=O)c2cccc(NS(=O)(=O)c3cn(C)cn3)c2O[C@H]1CN(C)CC1CC1
    nt, -1.1
> C[C@@H]1CN([C@H](C)CO)C(=O)c2cc(NS(C)(=O)=O)ccc2O[C@H]1CN(C)S(=O)(=O)c1ccc(Cl)cc1
    -0.7, 4.2
> Cc1nn2c(nc1=O)NNC2(C)c1ccccc1 (stereo not drawn)
    -0.1, -0.9
> C=CCN(CC=C)CC(O)Cn1cnc2c1c(=O)n(C)c(=O)n2C (stereo not drawn)
    2.8, 0.4
> CC(C)CCNC(=O)c1cccc2c1-c1ccccc1C2=O
    0.0, -1.5
> C[C@@H]1CN([C@@H](C)CO)C(=O)c2cc(NC(=O)CCCN(C)C)ccc2O[C@H]1CN(C)Cc1ccc(C(F)(F)F)cc1
    -0.2, 4.1
> O=C(O)c1ccc(Oc2ccccc2)cc1
    -2.7, -2.4
> CC1=C(C(=O)Nc2cc(C)ccc2C)C(c2ccc(N(C)C)cc2)NC(=S)N1 (stereo not drawn)
    -0.3, -0.8
> C[C@H](CO)N1C[C@H](C)[C@H](CN(C)C(=O)Nc2ccc(F)cc2)Oc2c(NS(=O)(=O)c3ccccc3)cccc2C1=O
    nt, 3.9
> C[C@@H]1CN([C@H](C)CO)C(=O)c2cc(NS(=O)(=O)c3cccs3)ccc2O[C@H]1CN(C)C(=O)Nc1ccc(C(F)(F)F)cc1
    -0.6, 1.5
> Cc1ccc(NC(=O)CC2Sc3ccc(C(F)(F)F)cc3NC2=O)c(C)c1 (stereo not drawn)
    nt, 0.6
> Cc1noc(C)c1S(=O)(=O)N(C)C[C@@H]1Oc2c(NC(=O)C3CCCCC3)cccc2C(=O)N([C@H](C)CO)C[C@@H]1C
    nt, -4.4
> COc1ccc(NC(=O)CSc2nc(-c3ccccc3)cc(=O)[nH]2)cc1
    0.8, 4.7
> CC1(C)CCc2cc(S(=O)(=O)N(Cc3ccccn3)Cc3ccccn3)ccc2O1
    -0.4, -1.0
> Cc1cc2cc(CNC(=O)CCC3CCCCC3)ccc2n1C
    nt, 2.7
> CC(C)CN(CC(C)C)C(=O)NCc1noc2ccccc12
    0.2, -3.0
> C[C@@H]1CN([C@@H](C)CO)C(=O)c2cc(NC(=O)Nc3ccc(F)cc3)ccc2O[C@H]1CN(C)S(=O)(=O)c1ccc(Cl)cc1
    0.1, -1.9
> Cc1ccc(S(=O)(=O)Nc2ccc3c(c2)C(=O)N([C@H](C)CO)C[C@H](C)[C@H](CN(C)S(=O)(=O)c2ccc(Cl)cc2)O3)cc1
    0.0, 2.0
> O=C(O)c1c(CNC2CCCc3ccccc32)c2ccccc2n1Cc1ccc(F)cc1Cl (stereo not drawn)
    0.1, -2.8
> CC(=O)Nc1ccc(-c2nnc3n(Cc4ccccc4Cl)c(=O)c4ccccc4n23)cc1
    0.3, -1.1
> CC1CCN(C(=O)c2scc3c2CCCC3)CC1
    -0.9, -0.6
> COc1ccc(C(=O)Nc2ccc(Cl)cc2)cc1S(=O)(=O)Nc1ccc(Cl)cc1
    -0.2, -5.5
> C[C@H]1CN([C@@H](C)CO)C(=O)c2cccc(N(C)C)c2O[C@@H]1CN(C)Cc1ccccc1
    nt, 6.0

# Only part of the results is shown, so the mix of outcomes need not match the whole.
